A488 autofl = compound autofluorescence in A488 spectral region. compound autofluorescence, A488 spectral region, dye equivalency; stronger effect = higher value. max dye equivalency, M. hit rate 0.1% among 59,000; active = above 10 nM dye equivalent; inconclusive = 1 to 10 nM; inactive = 1 nM or less; about half of its hits are not listed in these tables;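 also: highest value over a series up to 38 µM; compound alone in buffer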
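Readout is A488 dye-equivalent concentration, calibrated by a per-plate six-point Alexa 488 series. Compounds in 100 mM Tris buffer pH 8.0 were incubated 15 min at room temperature. Plates were imaged using 480 nm excitation/540 nm emission filters.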
AID923 = qHTS Assay for Allosteric/Competitive Inhibitors of Caspase-1: Spectroscopic Profiling in AFC Spectral Region. hit rate 1.1% among 75,000. Potency, µM (titrated, usually from 57.5 µM), inactives show at the highest dose fluorescence increase, hits mostly activators. compound fluorescence, AFC spectral region (405/520 nm); almost no hit is shown here; active = well fitted activation curve with a large enough effect; inconclusive = small, poorly fitted or top-dose-only effect;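 also: potency is read from the fitted curve at half-maximal effect; 0% is about no effect; scaled to a free AFC standard on each plate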
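Compound autofluorescence profiled at 405 nm ex/520 nm em during kinetic caspase 1 run (50 nM enzyme, 5 uM Ac-WEHD-AFC, HEPES pH 7.5, 10 mM DTT). Titration up to 57 uM; baseline from regression intercept, normalized to AFC standard curve.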
A647 autofl = compound fluoresces in the A647 spectral region; max dye-equivalent concentration, M; Compound fluorescence, A647 channel (570/671 nm), Tris buffer; 59,000 tested, under 10 active; active means above 1 µM dye equivalent; inconclusive means 0.1 to 1 µM; inactive means 0.1 µM or less;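 also: values scaled relative to a standard on each plate; highest value over a series up to 38 µM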
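Fluorescence read (570 nm ex, 671 nm em) after 15 min RT incubation of compounds in 100 mM Tris buffer, pH 8.0; values expressed as dye-equivalent concentration against a six-point A647 standard series on each plate.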
Resorufin autofl = resorufin region autofluorescence. Compound fluorescence, resorufin region 547/598 nm, buffer; stronger effect = higher value. max dye-equivalent concentration, M. hit rate 0.04% among 59,000. AID 588; active = above 10 nM dye equivalent; inconclusive = 1 to 10 nM; inactive = 1 nM or less; a few of its hits are not listed in these tables; also: highest value over a series up to 38 µM
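Compounds in 100 mM Tris buffer, pH 8.0, incubated 15 min at room temperature, then read with 547 nm excitation and 598 nm emission filters. Fluorescence was converted to dye-equivalent concentration using an on-plate six-point resorufin standard curve.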
TSHR agonist = agonists of human thyroid stimulating hormone receptor | Potency, µM (series often up to 57.1 µM), for inactives: top-dose activation, usual class: activators | P16473 | HEK293-CNG-TSHR cells (CNG channel as cAMP sensor), membrane potential dye, cAMP | hit rate 0.48% among 73,000 | AID 926; active = well fitted activation curve of enough size with the parental cells flat; inconclusive = any curve in the parental cells; inactive = parental cells flat and receptor cells flat or falling; also: potency is read from the fitted curve at half-maximal effect; % of control where 0% means no effect; weak receptor curves with flat parental cells got no call and are not listed
Target sequence (P16473 whole entry, looked up): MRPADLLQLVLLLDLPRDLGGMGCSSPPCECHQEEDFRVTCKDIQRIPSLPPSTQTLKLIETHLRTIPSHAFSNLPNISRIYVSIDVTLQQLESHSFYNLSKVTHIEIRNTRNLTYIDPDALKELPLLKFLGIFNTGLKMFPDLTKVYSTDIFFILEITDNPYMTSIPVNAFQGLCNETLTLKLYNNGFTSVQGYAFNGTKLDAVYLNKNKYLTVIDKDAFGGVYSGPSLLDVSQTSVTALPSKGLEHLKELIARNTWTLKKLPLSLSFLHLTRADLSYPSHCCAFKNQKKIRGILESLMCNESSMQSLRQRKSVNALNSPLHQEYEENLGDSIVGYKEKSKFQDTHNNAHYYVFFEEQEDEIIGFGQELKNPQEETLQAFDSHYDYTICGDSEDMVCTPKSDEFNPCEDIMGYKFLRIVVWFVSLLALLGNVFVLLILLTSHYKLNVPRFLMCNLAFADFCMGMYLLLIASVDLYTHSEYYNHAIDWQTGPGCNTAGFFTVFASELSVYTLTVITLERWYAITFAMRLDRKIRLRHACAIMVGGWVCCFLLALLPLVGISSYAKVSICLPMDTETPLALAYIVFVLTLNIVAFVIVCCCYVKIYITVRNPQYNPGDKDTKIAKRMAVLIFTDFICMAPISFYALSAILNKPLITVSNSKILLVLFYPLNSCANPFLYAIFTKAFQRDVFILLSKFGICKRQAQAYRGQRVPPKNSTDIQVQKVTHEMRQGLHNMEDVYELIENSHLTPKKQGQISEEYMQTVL
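HEK 293 cells stably expressing TSHR and a modified CNG channel, with CNG-only parental cells as counterscreen, were preloaded 60 min at room temperature with membrane potential dye containing 100 uM RO 20-1724. Compound exposure was 30 min, and depolarization was read as fluorescence at 590 nm.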
Starred values were filed as active, the others as inactive; i = inactive; ? = inconclusive; . = not tested or not shown; & = joins results of further samples; [ ] = dose if it differs, or a comment. An excerpt (hit frequency here may not be typical).

Molecule | A488 autofl | AID923 | A647 autofl | Resorufin autofl | TSHR agonist
Cc1ccc2nc(-c3ccc(SCC(=O)O)nc3)[nH]c2c1 | i | 1.9% | 1.31e-08 | i | -1.3%
CC(C)CCNC(=O)C1C2C=CC3(CN(Cc4ccccc4Cl)C(=O)C13)O2 (stereo not given) | . | 4.7% | . | . | 8.3%
O=C(CSc1ccc2nnc(-c3ccccc3)n2n1)N1CCN(c2ccccc2)CC1 | . | -4.7% | . | . | -5.9%
COc1cc(C(=O)OCC(=O)c2cc(C)n(C)c2C)cc(OC)c1OC | i | -0.1% | 2.56e-08 | i | 6.7%
CCC(C)[C@H](NC(=O)NC1CCCc2ccccc21)C(=O)O (stereo not given in full) | i | 0.5% | 2.55e-08 | i | 2.7%
COc1cccc(OC)c1C(=O)Nc1ccc(CN2CCOCC2)cc1 | i | 0.8% | 1e-09 | i | 0.9%
Cc1ccc(-c2nn3c(-c4ccco4)nnc3c3ccccc23)cc1S(=O)(=O)NCC1CCCO1 (stereo not given) | i | 0.9% | 1.76e-08 | i | ?
Cc1c(C(=O)N2CCCC2)nnn1-c1nonc1N | i | 3.2% | 5.2e-09 | i | 13.8%
CCCN1CCN(CCCNC(=O)CN2C(=O)COc3ccccc32)CC1 | i | 1.6% | 1.88e-08 | i | -0.3%
CC(=O)Nc1ccc(S(=O)(=O)N2CCC(n3cnc4cc(F)ccc43)CC2)cc1 | i | 11.9% | 2.1e-09 | i | ?
Cc1ccc(CNC(=O)c2ccc(Br)o2)cc1 | . | 0.2% | . | . | 6.6%
Cn1c(-c2ccc(Br)o2)nc2cc(Br)ccc21 | i | 0.7% | 1e-09 | i | ?
COc1ccc(C(C(O)C(=O)c2c[nH]c3ccccc23)N2CCN(c3ccccc3)CC2)cc1 (stereo not given) | i | 1.9% | 1e-09 | i | 17.3%
COc1cc(OC)cc(C(=O)Nc2cc(NC(=O)c3ccco3)ccc2OC)c1 | i | -0.2% | 1e-09 | i | ?
COC(=O)c1cc(-c2ccccc2)n[nH]1 | i | 0.7% | 2.93e-08 | i | 0.6%
CCOc1cc2[nH]c(=S)n(CCCC(=O)NCc3ccco3)c(=O)c2cc1OCC | i | -1.1% | 2.5e-09 | i | 1.2%
O=C(c1ccccc1)N1CCN(C2CCCCCC2)CC1 | i | 0.3% | 1.93e-08 | i | 1.2%
O=C(Nc1c2c(nn1-c1ccc(F)cc1)CS(=O)(=O)C2)C12CC3CC(CC(C3)C1)C2 | i | 5.4% | 1e-09 | i | ?
O=C(Nc1cccc(N2CCCC2)c1)c1cccs1 | i | -0.8% | 1.79e-08 | i | -30.0%
CCN(CC)C1=CC(=O)OC12CCCCC2 | . | -0.4% | . | . | 5.1%
O=c1[nH]c(Cc2cccs2)nc2ccccc12 | i | -2.7% | 7.7e-09 | i | 1.8%
N#CC(C#N)=C(N)/C(C#N)=C/c1ccc(O)cc1 | i | 1.7% | 3.88e-08 | i | .
CC1=C(C(=O)OCC(C)C)C23C(=O)c4ccccc4C2(O1)OC(N)=C3C#N (stereo not given) | i | -2.8% | 7.8e-09 | i | 25.7%
COc1cccc(-c2cc(=O)c3cc(O)ccc3o2)c1 | i | -1.0% | 1e-09 | i | ?
CCOc1ccccc1C(=O)NC1CCN(Cc2nnnn2C2CCCC2)CC1 | i | 0.7% | 2.25e-08 | i | 4.2%
O=C(NCc1ccccn1)Nc1cccc(Cl)c1 | . | 1.1% | . | . | -12.5%
O=C(O)CCSC1=NCCN1 | i | -0.2%[11.5 µM] | 3.7e-08 | i | 4.1%[11.4 µM]
C[C@H]1CC[C@]2(OC1)O[C@@H]1C[C@@H]3[C@@H]4CC[C@H]5C[C@@H](O)CC[C@]5(C)[C@@H]4CC(=O)[C@@]3(C)[C@H]1[C@@H]2C | i | 5.2%[25.7 µM] | 2.11e-08 | i | -13.5%[25.6 µM]
Cc1onc(-c2ccccc2)c1C(=O)Nc1ccccc1N1CCOCC1 | i | 1.4% | 2.17e-08 | i | .
O=S(=O)(O)c1ccc2c(N=Nc3cccc4ccccc34)c(O)c(S(=O)(=O)O)cc2c1 | i | -1.3%[11.5 µM] | 5.1e-09 | i | -8.2%[11.4 µM]
O=C(COc1ccccc1)NCCSc1ccccc1 | . | 0.1% | . | . | 17.7%
CCOC(=O)c1cccc(NC(=O)c2cnccn2)c1 | i | 0.9% | 1.17e-08 | i | 8.3%
COCCNC(=O)C(c1ccco1)N(C(=O)Cn1nnc2ccccc21)c1cccc(C)c1C (stereo not given) | i | 0.3% | 1e-09 | i | 24.6%
COc1ccc2c(Cl)c(C(N)=O)sc2c1 | i | 1.7% | 1.5e-09 | i | ?
Cn1cccc1C(=O)N1CCC2(CCCN(Cc3ccc(C#N)cc3)C2)CC1 | i | -0.1% | 5.1e-09 | i | 14.8%
CCOC(=O)c1ccc(NC(=O)CSc2ncccn2)cc1 | i | 5.5% | 1e-09 | i | 1.8%
O=C(O)c1cnccn1 | . | 1.1% | . | . | -6.3%
CSCCC(Nc1ncnc2ccc(Br)cc12)C(=O)O (stereo not given) | i | -0.2% | 6.75e-08 | i | ?
Brc1ccc(-c2nnc3sc(CN4CCN(c5ccccc5)CC4)cn23)cc1 | i | -0.9% | 2.2e-09 | i | 9.7%
CCCCn1nnnc1SCC(=O)Nc1sc2c(c1C#N)CCCC2 | i | -2.7% | 1.91e-08 | i | ?
CCOC(=O)c1ccoc1CSCc1ccc(C(=O)OC)o1 | i | 1.6% | 4.25e-08 | i | 8.0%
O=c1[nH]c(NCc2ccccc2)nc2c1CCCC2 | i | 0.6% | 1.41e-08 | i | 0.4%
NS(=O)(=O)c1cc2c(cc1Cl)NC=NS2(=O)=O | i | -1.8% | 2.25e-08&5.4e-09&4.4e-09 | i | ?
O=C(Nc1ccc2c(c1)OCO2)c1c(F)c(F)c(F)c(F)c1F | i | -4.6% | 1.4e-09 | i | 29.6%
COC(=O)C1CCN(C(=O)c2c(-c3ccccc3Cl)noc2C)CC1 | i | -1.2% | 3.9e-09 | i | -3.3%
Cc1ccccc1N1C(=O)CC(Sc2nnc(-c3ccccc3)o2)C1=O (stereo not given) | i | . | 8.8e-09 | i | .
OC(COc1ccc2ccccc2c1)CN1CCN(c2ccc(F)cc2)CC1 (stereo not given) | . | -1.2% | . | . | 5.7%
CCSc1nnc(NC(=O)CSc2nc3c(c(=O)n2-c2ccccc2OC)SCC3)s1 | i | 2.3% | 4.1e-09 | i | ?
O=C(O)CSCC(=O)c1ccccc1 | i | 0.7% | 1e-09 | i | 14.2%&0.4%[11.4 µM]
O=C(COC(=O)c1ccccn1)Nc1cccc(Cl)c1 | i | 0.2% | 3.78e-08 | i | 0.0%

The results go on.
Molecule | A488 autofl | AID923 | A647 autofl | Resorufin autofl | TSHR agonist
Cc1cc(-n2c(C)cc(C(=O)CSc3nnnn3-c3ccc(Cl)cc3)c2C)no1 | i | 3.1% | 3.49e-08 | i | .
Cc1sc2c(c1C)CN(Cc1ccco1)CN2C(=O)c1ccccc1 | i | -0.3% | 1e-09 | i | 3.2%
COc1cccc(-c2nc(NCCN3CCOCC3)c3ccccc3n2)c1 | i | 1.6% | 1e-09 | i | 10.4%
O=C(O)CCSCc1ccccc1 | i | -0.3%[11.5 µM] | 3.89e-08 | i | -2.1%[11.4 µM]
[O-][n+]1ccc(C2CC2)cc1 | i | 0.9% | 3.62e-08 | i | 4.6%
CS(=O)(=O)Nc1cccc(-c2ccc3ncnc(NCc4cccs4)c3c2)c1 | i | 6.1% | 3.21e-08 | i | 17.4%
Cc1ccc(C(=O)C2=C(O)C(=O)N(CCCn3ccnc3)C2c2ccc(OC(C)C)cc2)o1 (stereo not given) | i | 0.3% | 1e-08 | i | -1.8%
CO[C@H]1[C@@H](OC(N)=O)[C@H](O)[C@@H](Oc2ccc3c(O)c(NC(=O)c4ccc(O)c(CC=C(C)C)c4)c(=O)oc3c2C)OC1(C)C | i | 11.2%[25.7 µM] | 1e-09 | i | -1.9%[25.6 µM]
COc1ccc(N2C(=O)C(Cl)=C(Nc3c(C)n(C)n(-c4ccccc4)c3=O)C2=O)cc1 | i | 1.5% | 7.5e-09 | i | -4.0%
Fc1cccc(NCc2cn3ccccc3n2)c1 | i | 0.4% | 3.5e-09 | i | ?
CCCCn1c(S(=O)(=O)O)nc2ccccc21 | i | -0.9% | 4.66e-08 | i | ?
Cc1cccc2cc(CN(CC3CCCO3)C(c3nnnn3Cc3ccco3)C(C)C)c(=O)[nH]c12 (stereo not given) | i | 11.9% | 6.49e-08 | i | ?
COc1ccc(NCc2c(O)ccc3ccccc23)cc1 | i | -3.1%[11.5 µM] | 3.94e-08 | i | -0.8%[11.4 µM]
CCOC(=O)C1=C(C)N(C)C(=O)NC1c1ccccc1OC (stereo not given) | . | -0.9% | . | . | 17.6%
C(=C\c1ccccc1)/CSc1nnc(-c2ccncc2)n1Cc1ccco1 | i | -0.8% | 4.82e-08 | i | ?
Cc1noc(C)c1S(=O)(=O)N1CCN(Cc2ccc3c(c2)OCO3)CC1 | . | 3.0% | . | . | 3.1%
CCCC(=O)Nc1ccc(N2CCN(C(=O)CCC)CC2)cc1 | i | -0.6% | 2.71e-08 | i | -3.3%
O=S(=O)(c1ccccc1)c1nc(-c2ccco2)oc1N1CCOCC1 | i | -1.1% | 4.54e-08 | i | 7.7%
Cc1nc(N2CCN(C(=O)c3ccc(Cl)cc3)CC2)c(C#N)c2c1COC(C)(C)C2 | i | . | 2e-09 | i | .
Cc1ccc(S(=O)(=O)Cc2ccc(C(=O)NCCCN3CCN(C)CC3)o2)cc1 | i | 0.4% | 1e-09 | i | 3.9%

Only TSHR agonist, for two of the compounds above:
SMILES,TSHR agonist
CCOC(=O)C1=C(C)N(C)C(=O)NC1c1ccccc1OC (stereo not given),17.6%
C(=C\c1ccccc1)/CSc1nnc(-c2ccncc2)n1Cc1ccco1,?

Continuation.
Molecule | A488 autofl | AID923 | A647 autofl | Resorufin autofl | TSHR agonist
CCN(CC)S(=O)(=O)c1ccc(OC(C)C)nc1 | i | 0.9% | 1.33e-08 | i | 10.6%
Clc1ccccc1-c1nnc2sc(C3COc4ccccc4O3)nn12 (stereo not given) | i | -0.9% | 4.7e-09 | i | 19.1%
CCc1cccc(C)c1NC(=O)CSc1nnc(-c2cc3cc(Br)ccc3o2)n1CC | i | -0.5% | 4.8e-09 | i | ?
O=c1cc(-c2ccc(O)c(O)c2)oc2cc(O[C@@H]3O[C@@H](CO)[C@@H](O)[C@@H](O)[C@H]3O)cc(O)c12 | i | . | 1e-09 | i | -5.5%
Cc1cccc(OCC(O)CN2C(C)(C)CC(O)CC2(C)C)c1C (stereo not given) | i | -0.6% | 1.3e-09 | i | 16.7%
CCOC(=O)c1c(C)c(C(=O)NCc2cccnc2)c(C)n1C | i | 0.4% | 1e-09 | i | .
COc1ccc(CCNC(=O)C2CC2)cc1OC | . | 0.5% | . | . | -3.4%[11.4 µM]
Cc1sc2ncnc(SCC#N)c2c1C | i | 3.2% | 2.2e-08 | i | -1.2%
C=CCn1c(-c2ccccc2)c[nH]c1=S | i | 1.1% | 4.7e-09 | i | 4.2%
c1ccc(N2CC[N+]3(CCCC3)CC2)nc1 | i | 0.0% | 3.51e-08 | i | 2.3%
COc1ccccc1N(CC(=O)NC(C)(C)C)C(=O)Cn1nnc(-c2ccc(C)o2)n1 | i | -0.3% | 2.6e-09 | i | 3.0%
COc1ccccc1C1(CC(=O)N2CCOCC2)CCOC(C(C)C)C1 (stereo not given) | i | . | 7.5e-09 | i | .
Cc1cc(C)n(-c2nc3c(c(=O)[nH]c(=O)n3C)n2CC(O)COc2ccccc2C)n1 (stereo not given) | i | 0.1% | 1.26e-08 | i | 1.1%
Cc1nn(C)c(C)c1S(=O)(=O)NCc1cccs1 | i | -0.2% | 2.82e-08 | i | 16.7%

From PubChem BioAssay
